High-throughput results from PubChem.
GLA inh pH 4.5 – alpha-galactosidase A (human) inhibition, pH 4.5; purified enzyme, 4-MU-alpha-Gal fluorescence, pH 4.5; activity change, negative = inhibition, % at 105 µM; 230,000 tested, under 10 active; P06280; inconclusive = small, poorly fitted or top-dose-only inhibition, or a rising curve; inactive = flat fitted curve, though single readings scatter; no compound was filed as active;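 note: 0% = full activity with enzyme and -100% = basal without enzyme; dose as in the result columns while the protocol names 77 µM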
Rango dissoc inh – inhibitors of RanGTP-induced Rango-importin beta complex dissociation. O95149+P62826. Biochemical FRET Rango-importin beta, RanGTP-induced dissociation. Potency, µM (top dose mostly 46.1 µM), for inactives: at the top dose activity change, negative = inhibition. actives 0.071% (n = 340,000); active means falling FRET ratio curve, often poorly fitted, with flat reads before Ran was added; inconclusive means other falling curves, or compound fluorescence or quenching; inactive means flat or rising ratio curve;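 note: potency is the fitted concentration of half-maximal effect; % of control where 0% means no effect; nearly all actives have a fitted effect of over 45% in size; -100% = wells without RanGTP and RCC1; the record marks most hits as doubtful in a second field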
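Recombinant Rango FRET biosensor (EYFP–snurportin 1 IBB–cerulean CFP10) at 0.1 uM premixed with 0.25 uM importin beta in PBS, 1 mM DTT, 0.02% Tween-20, 0.1% BSA. Compound added 5 min; RanGTP-RCC1 (0.6 uM Ran, 2 mM GTP, 0.2 uM RCC1) then triggers release, read at 45 min.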
Rango complex inh – Rango-importin beta binding inhibition; Q14974; Rango CFP/YFP FRET sensor + importin beta, 45 min; Potency, µM (top dose mostly 92.2 µM), for inactives: at the highest dose inhibition of complex formation; actives 0.031% (n = 340,000); active = rising FRET ratio curve, often small or poorly fitted; inconclusive = mostly compound fluorescence or quenching in the first reads; inactive = flat curves in all reads;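 note: potency is the fitted concentration of half-maximal effect; 0% = DMSO wells and 100% = buffer wells lacking importin beta; nearly all actives have a fitted effect of over 15% in size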
Target sequence (Q14974 whole entry, looked up): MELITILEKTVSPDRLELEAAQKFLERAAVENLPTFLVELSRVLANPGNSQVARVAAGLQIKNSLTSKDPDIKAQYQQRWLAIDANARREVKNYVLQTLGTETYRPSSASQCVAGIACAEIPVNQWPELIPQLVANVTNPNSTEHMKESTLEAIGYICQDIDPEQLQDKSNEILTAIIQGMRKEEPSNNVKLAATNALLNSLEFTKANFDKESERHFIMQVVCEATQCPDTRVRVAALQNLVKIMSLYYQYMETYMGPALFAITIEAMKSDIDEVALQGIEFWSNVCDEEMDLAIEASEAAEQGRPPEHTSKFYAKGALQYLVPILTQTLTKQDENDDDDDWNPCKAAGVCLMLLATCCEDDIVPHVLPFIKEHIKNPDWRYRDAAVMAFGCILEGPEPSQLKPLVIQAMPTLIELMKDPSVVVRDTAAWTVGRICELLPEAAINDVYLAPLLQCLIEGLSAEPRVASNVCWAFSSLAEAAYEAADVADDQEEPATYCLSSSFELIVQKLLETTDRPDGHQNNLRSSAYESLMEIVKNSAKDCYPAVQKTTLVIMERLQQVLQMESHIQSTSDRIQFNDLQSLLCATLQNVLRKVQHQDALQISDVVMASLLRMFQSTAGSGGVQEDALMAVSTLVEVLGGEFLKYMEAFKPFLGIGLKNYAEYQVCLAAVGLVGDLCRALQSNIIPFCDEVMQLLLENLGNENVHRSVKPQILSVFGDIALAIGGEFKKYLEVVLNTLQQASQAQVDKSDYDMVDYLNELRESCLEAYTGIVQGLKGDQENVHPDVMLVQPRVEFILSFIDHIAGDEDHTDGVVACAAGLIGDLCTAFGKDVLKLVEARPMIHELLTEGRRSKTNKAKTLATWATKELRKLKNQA
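Inhibition scored from the CFP 486 nm/YFP 530 nm FRET ratio 45 min after adding 0.125 microM importin beta to 50 nM Rango biosensor preincubated 5 min with compound (room temperature, PBS with DTT, Tween-20, BSA). No-importin wells as positive control.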
miR-21 FLuc – miR-21 reporter, rising signal; 340,000 tested, under 10 active; HeLa miR-21 FLuc reporter, luciferase, 48 h; Potency, µM (top dose mostly 38.3 µM), without a hit: top-dose reporter change, positive = more light; active = well fitted rising curve with a large enough effect; inconclusive = small, poorly fitted or top-dose-only effect; inactive = no such curve, though single readings can be large or run the other way;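 note: % of control where 0% means no effect; miR-21 action dims this reporter so a rising signal means less miR-21 action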
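Using DMEM plus 10% FBS, HeLa miR-21-FLuc cells are incubated with test compounds (final up to about 40uM) for 48 hours; firefly luciferase signal is then imaged following reagent-mediated lysis.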
* marks the source's active call; other numbers are inactive results; ? = inconclusive; nt = no result given; & = joins results of further samples; [ ] = dose if it differs, or a comment. Some of the compounds tested; count on the stated rates, not on these rows.

Molecule | GLA inh pH 4.5 | Rango dissoc inh | Rango complex inh | miR-21 FLuc
O=C(N/C(=C\c1ccc2c(c1)OCO2)C(=O)N1CCOCC1)c1cccs1 | 2.8 | 3.6% | -2.3% | -8.9%
COc1ccc2[nH]c(C)c(CCN(Cc3cccs3)C(=S)Nc3ccccc3)c2c1 | 4.5 | 5.7% | ? | 9.7%
CC(NC(=O)Cn1cccc1C(=O)c1ccccc1)c1ccccc1 (stereo unspecified) | nt | 10.1% | -2.9% | 3.3%
CCCCn1c(N)c(N(CCOC)C(=O)C2CC(=O)N(c3cccc(SC)c3)C2)c(=O)[nH]c1=O (stereo unspecified) | nt | -13.1% | -1.4% | nt
C[C@H](CO)N1C[C@H](C)[C@@H](CN(C)S(=O)(=O)c2cccs2)Oc2c(NC(=O)Nc3ccccc3)cccc2C1=O | nt | 2.3% | -4.7% | nt
CC(C)CNC(=O)COc1ncnc2ccccc12 | 6.6 | 2.3% | 0.6% | -4.0%
COc1ccc(CNC(=O)c2cccc(NC3=NC4CS(=O)(=O)CC4S3)c2)cc1 (stereo unspecified) | nt | -3.2% | 0.2% | -1.8%
CC1(C)CC(=O)C2=C(C1)OC(N)=C(C#N)C2c1ccc2c(c1)OCO2 (stereo unspecified) | nt | -4.3% | -2.9% | -0.6%
CC(OC(=O)c1cc(=O)[nH]c2ccccc12)c1ccccc1 (stereo unspecified) | -4.5 | -5.0% | 1.6% | -46.5%
CC1CC(C)CN(C(=O)c2ccccc2Nc2ccc(SC(F)F)cc2)C1 (stereo unspecified) | -12.1 | -4.9% | 3.8% | 6.5%
Cc1ccccc1C(=O)Nc1ccc(C(=O)N/N=C/c2ccc(F)cc2)cc1 | -15.1 | -19.3% | 0.2% | 0.3%
O=C(c1ccccc1OC(F)F)N1CCN(S(=O)(=O)c2ccc3c(c2)OCCCO3)CC1 | nt | -3.5% | -2.4% | nt
O=S(=O)(c1ccccc1C(F)(F)F)N1CCN(c2ncnc3sccc23)CC1 | nt | -2.7% | -1.8% | nt
Cn1cc(/C=N/NC(=O)c2ccc(C#N)cc2F)c2ccccc21 | -4.4 | 10.5% | -2.5% | -10.8%
CCOC(=O)c1c(N)sc(C(=O)N(CC)CC)c1C | 4.0 | 20.4% | -0.9% | 0.1%
Cc1ccc(C2CC(c3ccccc3)n3ncnc3N2)cc1 (stereo unspecified) | 4.3 | ? | ? | -4.1%
Cc1n[nH]c(=S)n1/N=C/c1ccc(Br)o1 | -3.5 | -11.9% | -1.3% | -4.7%
CC(C)c1ccc(OCC(=O)Nc2cccc3c2CCCC3)cc1 | 4.4 | 3.4% | 0.2% | -6.0%
O=C(CSc1nnc(-c2ccc(F)cc2)o1)Nc1ccccc1N1CCOCC1 | nt | ? | -1.8% | nt
Cc1ccc2c(c1)c1c(n2CC(O)Cn2ccnc2C)C(=O)CCC1 (stereo unspecified) | 5.4 | -17.1% | ? | -8.6%
CC1CCc2c(sc(NC(=O)Cn3nc(C(F)(F)F)c4c3CCCCC4)c2C#N)C1 (stereo unspecified) | -28.3 | -3.9% | 4.3% | -4.9%
COc1cc(OC)cc(-c2cc3nc(C)cc(N4CCN(C(=O)c5ccco5)CC4)n3n2)c1 | 0.6 | nt | nt | -3.6%
COc1cc(NC(=O)COc2cc(O)c3c(c2)OC(C)(C)CC3=O)cc(OC)c1OC | nt | -6.8% | -1.1% | 28.3%
Cc1c(NC(=S)NC(=O)c2cccc([N+](=O)[O-])c2)c(=O)n(-c2ccccc2)n1C | nt | 7.6% | 4.0% | 8.9%
COc1ccc(N(C(=O)c2cccnc2)S(=O)(=O)c2ccc(OC)c(OC)c2)cc1 | nt | 25.6% | 0.3% | -8.2%
Cc1ccc(OCCn2cc(/C=C(\C#N)C(=O)NCC3CCCO3)c3ccccc32)cc1C (stereo unspecified) | -13.3 | 9.5% | ? | -0.3%
CC(C)[C@H](NC(=O)NC1CCN(Cc2ccccc2)CC1)C(=O)O | -10.2 | 5.7% | -2.5% | ?
CCOC(=O)Cc1csc(NC(=O)c2c(O)c3ccccc3n(C)c2=O)n1 | -3.9 | nt | nt | -5.3%
CCC(C)CCN1CCN=C1Nc1ccccc1 (stereo unspecified) | nt | 5.4% | 5.7% | nt
Cc1ccc(S(=O)(=O)N2CCN(Cc3csc(C)n3)CC2)cc1 | nt | -5.0% | -2.5% | -0.7%
NS(=O)(=O)c1ccc(CCNC(=O)COC(=O)Cc2c(F)cccc2Cl)cc1 | nt | -16.9% | 0.0% | 0.1%
CC(=O)c1c(C(C)=O)c(C)n(-c2cccc([N+](=O)[O-])c2)c1C | -4.8 | 10.9% | 0.2% | -0.3%
O=C(O)CCC(=O)Nc1ccccc1Oc1ccccc1 | 0.7 | -3.9% | 0.1% | -1.5%
Cc1ccccc1CCN(C(=O)c1csnn1)C(C(=O)NC1CCCC1)c1ccncc1 (stereo unspecified) | nt | -8.8% | 6.8% | 2.9%
O=C(CSc1n[nH]c(-c2ccccc2)n1)Nc1ccc(F)cc1F | nt | 29.1% | -0.2% | -0.4%
Cc1ccc(-n2nc(C)c(NC(=O)COC(=O)c3ccccc3NCCO)c2C)cc1 | nt | 6.7% | 1.1% | nt
CCOC(=O)CN(C(=O)CSc1nnc(CNc2ccc(F)cc2)n1CC)c1ccc(F)cc1 | 0.9 | ? | 2.4% | 8.4%
Cn1cc(CN2CC3C[C@@H]4CC2C[C@H](C3)C4)c(-c2ccc3c(c2)OCCO3)n1 | -9.5 | 9.1% | -0.1% | -26.3%
O=C(COc1ccccc1F)NNC(=O)c1cccc(-n2cccc2)c1 | nt | 1.1% | -1.7% | -3.5%
CC(C)Cc1ccc(C(C)/C=C2/CCC(CN3CCCCC3)C2=O)cc1 (stereo unspecified) | nt | -13.0% | -3.7% | nt
O=C(CN1C(=O)NC2(CCCc3ccccc32)C1=O)NCCc1ccc(F)cc1 (stereo unspecified) | nt | 0.3% | ? | nt
O=S(=O)(c1ccc(NCC2CCCCC2)nc1)N1CCOCC1 | 0.1 | 13.3% | -0.7% | -15.5%
c1cncc(Nc2nc(-c3cccnc3)cs2)c1 | -4.5 | 32.8% | -1.8% | -31.1%
CCC1CCCCN1C(=O)COC(=O)c1cc(=O)[nH]c2ccccc12 (stereo unspecified) | nt | -6.9% | -1.8% | nt
O=C(CSc1ncnc2c1oc1ccccc12)Nc1ccccc1C(F)(F)F | 6.5 | 29.6% | 0.3% | -10.5%
S=C(Nc1ccccc1Cl)NC1CCCCCC1 | 5.5 | 20.9% | 2.8% | -25.8%
COC(=O)c1c(CSc2ccc(Cl)cc2)noc1C(=O)NCc1ccco1 | -2.8 | -17.2% | -1.6% | 0.1%
COc1cccc(CNC(=O)Cn2ccc3cc(S(=O)(=O)N4CCCCCC4)ccc32)c1 | nt | 0.2% | 1.2% | 9.8%
CCN(CC)CCNC(=O)C(=O)NCC1OCCN1S(=O)(=O)c1ccc([N+](=O)[O-])cc1 (stereo unspecified) | 3.7 | 19.9% | -2.7% | 3.5%
COc1ccc(CNC(=O)C2CCC(CNc3c(N4CCOCC4)c(=O)c3=O)CC2)cc1 (stereo unspecified) | -4.1 | 14.8%&-15.8% | -2.1%&-2.0% | -1.4%
COc1ccc(S(=O)(=O)NC(C)C(=O)N2CCCC2)cc1C (stereo unspecified) | nt | -0.7% | -3.1% | -2.0%
O=C(CSc1nccc(=O)[nH]1)Nc1cc(C(F)(F)F)ccc1N1CCOCC1 | nt | 21.3% | 0.1% | -0.6%
Cc1ccc(CN(C(=O)c2sc3ccccc3c2Cl)C2CCS(=O)(=O)C2)cc1 (stereo unspecified) | -6.9 | -0.6% | -1.7% | -9.0%
CCC(CO)Oc1cc(NC(=O)c2ccccc2Cl)c2ncn(C(C)C)c2c1 (stereo unspecified) | nt | -17.1% | -3.3% | nt
Cc1cc(=O)c2ccc(C(F)(F)F)cc2[nH]1 | 6.2 | 15.6% | -2.5% | 2.6%
CC(C)(C)OC(=O)NCCCC[C@@H](C(=O)N1CCN(C(=O)OC(C)(C)C)CC1)n1cc(C(CO)NC(=O)OC(C)(C)C)nn1 (stereo partly specified) | -0.8 | 9.5% | -0.2% | 0.0%
COc1cc(OC)cc(-c2c(-c3cccs3)c3cc(-c4ccc(OC)c(F)c4)ccc3n2C)c1 | nt | -8.3% | 2.0% | nt
Cc1cc(C(=O)N2CCCC(Nc3ccc(F)cc3)C2)c(C)o1 (stereo unspecified) | nt | 12.4% | 0.2% | 0.6%
Cc1ccc(C)c(S(=O)(=O)N2CCN(C(=O)c3cccn3C)CC2)c1 | nt | 1.7% | 0.1% | nt
COc1ccc(N2CCN(C(=O)CCN3C(=S)NC(C)(C)CC3C)CC2)cc1 (stereo unspecified) | -0.2 | 0.5% | 0.4% | 1.6%

Additional entries
Molecule | GLA inh pH 4.5 | Rango dissoc inh | Rango complex inh | miR-21 FLuc
COc1ccc(C(=O)COC(=O)CNC(=O)C2CCCCC2)c(OC)c1 | 5.8 | -6.8% | -5.1% | -1.3%
COc1ccc(C(C)=O)cc1CSc1nnc(Nc2ccc(C)cc2)s1 | -4.2 | ? | ? | 16.5%
COc1ccc(S(=O)(=O)N(CC(C)C)CC(C)C)c2cccnc12 | -2.1 | 1.0% | 0.4% | 1.6%
Cc1cccc(N2CC(C(=O)Nc3nc4ccc(S(C)(=O)=O)cc4s3)CC2=O)c1C (stereo unspecified) | nt | 6.0% | -5.1% | 12.2%
CC(OC(=O)Cc1cccc(C(F)(F)F)c1)C(=O)Nc1ccc(Cl)cn1 (stereo unspecified) | nt | 1.7% | 3.2% | -6.1%
O=C(OCC(=O)N1CCCC1)c1ccccc1OCc1ccccc1 | 4.5 | 4.1% | -0.5% | -27.0%
Cc1cccc(NC(=S)N/N=C/c2c[nH]c3ccccc23)c1 | -13.0 | 1.2% | -2.9% | 1.5%
CCC(=O)n1nc(-c2cccnc2)nc1NCc1cccs1 | 2.5[21.1 µM] | -16.8% | -1.2% | -18.0%
N#C/C(=C\C1CC=CCC1)c1nc2ccccc2[nH]1 (stereo unspecified) | -14.7 | -19.8% | -4.3% | -3.7%
CC1(C)CC(=O)C2=C(C1)NC(SCC(=O)Nc1ccccc1)=C(C#N)C2c1ccco1 (stereo unspecified) | -24.8 | 1.5% | ? | 1.4%
CCN(CC)S(=O)(=O)c1cccc(C(=O)NC2=NCCS2)c1 | nt | 2.0% | -4.7% | -8.2%
C(=N\Nc1nnnn1-c1ccccc1)/c1ccncc1 | -8.1 | -0.8% | -1.4% | -0.5%
CCOc1ccc(C2=CS/C(=C(\C#N)c3nnc4n3CCCCC4)N2CC)cc1 | 3.9 | -1.0% | 0.1% | 25.1%
Cc1cccc(N2C(=O)C(Cl)=C(Nc3c(C)n(C)n(-c4ccccc4)c3=O)C2=O)c1C | -7.9 | 6.0% | -0.6% | -10.5%
Cc1oc(CC(C)C)cc1C(=O)Nc1cccc2ccccc12 | -6.7 | -0.8% | -0.8% | -3.2%
C/C(=N\NC(=O)c1ccc(CN2CCc3ccccc3C2)cc1)c1ccccc1O | -8.6 | ? | ? | 25.3%
O=C(CNC(=O)c1ccccc1F)N/N=C/c1cc(Br)ccc1OCc1ccccc1 | 2.4 | -12.5% | 2.8% | -28.0%
O=C(CCCCn1c(=O)c2ccccc2n(Cc2ccccc2F)c1=O)NC1CCN(Cc2ccccc2)CC1 | -3.4[21.1 µM] | -5.5% | 1.4% | -0.8%

2 of the compounds above, with each value named:
Cn1cc(/C=N/NC(=O)c2ccc(C#N)cc2F)c2ccccc21
  GLA inh pH 4.5 = -4.4; Rango dissoc inh = 10.5%; Rango complex inh = -2.5%; miR-21 FLuc = -10.8%

CC(C)Cc1ccc(C(C)/C=C2/CCC(CN3CCCCC3)C2=O)cc1 (stereo unspecified)
  GLA inh pH 4.5 = nt; Rango dissoc inh = -13.0%; Rango complex inh = -3.7%; miR-21 FLuc = nt
